# Screening results deposited in PubChem by ICCB-Longwood Screening Facility, Harvard Medical School.
# Sa growth inh = S. aureus growth inhibition; S. aureus RN4220 growth, OD600, 20 h, 42 °C; hits give low values; relative growth, % (test concentration not listed); 170,000 tested, 0.53% active; AID 720641;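 active = growth at 42 °C up to 50% and 20 or more points under that at 30 °C, or under 10% at both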;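 also: 300 nL library stock went into each well; scaled to the means of positive and negative controls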
# HCMV NEC inh = cytomegalovirus nuclear egress complex inhibition; HTRF UL50-UL53 interaction, normalized percent inhibition; inhibition, % (concentration not given with the values); 190,000 tested, 0.15% active; AID 1918969;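 active = both replicates at 50% or more, plus weaker picks with an unusually low signal ratio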;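 also: stock transfer was 100 nL into about 20 µL; 0% = negative control wells and 100% = wells with untagged competitor protein; inactives centre near -12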
# GIV-Gai inh = inhibitors of GIV GBA-motif binding to rat Galpha-i3. AID 1224905. percent of control (FP), % (test concentration not listed). 210,000 tested, 0.42% active. Galpha-i3/FITC-GIV peptide fluorescence polarization, 90 min; hits give low values; scaled: aluminum fluoride 0%, vehicle 100%. P08753;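 active = replicate mean at 85% of control or lower, very high polarization wells dropped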;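 also: wells of about 15 µL received 100 nL stock; the first replicate is given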
# Target sequence (P08753 whole entry, looked up): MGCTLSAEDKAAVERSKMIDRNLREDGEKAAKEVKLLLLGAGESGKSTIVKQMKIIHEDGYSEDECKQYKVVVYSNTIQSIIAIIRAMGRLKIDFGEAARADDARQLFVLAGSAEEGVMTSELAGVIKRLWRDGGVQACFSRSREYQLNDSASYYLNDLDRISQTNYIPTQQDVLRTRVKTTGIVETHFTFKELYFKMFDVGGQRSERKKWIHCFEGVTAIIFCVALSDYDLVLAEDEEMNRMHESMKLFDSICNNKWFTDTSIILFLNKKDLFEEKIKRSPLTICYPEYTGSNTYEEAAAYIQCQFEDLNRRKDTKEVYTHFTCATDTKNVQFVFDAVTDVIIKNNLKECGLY
# Sa growth inh second temp = also measured in Sa growth inh; calls as there; relative growth, %; measured here: growth at 30 °C;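 optical density after 20 h as mean of two plates; 100% = untreated growth and lower means inhibition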
# * hit, by the source's call; x = no result given; & = joins results of further samples.
# The first five records, ahead of the listing:
Molecule	Sa growth inh	Sa growth inh second temp	HCMV NEC inh	GIV-Gai inh
O=c1[nH]c2ccc(Cl)cc2c(-c2ccccc2)c1N1CCN(c2ccccn2)CC1	118.5	94.6	-7.1	104.0
Cc1nn(CCC(=O)Nc2ccc(Cl)cc2)c(C)c1S(=O)(=O)N1CCCCC1	109.9	96.2	x	101.0
COc1ccccc1C(=O)OCc1cc(=O)n2nc(-c3cccs3)sc2n1	92.5	81.6	x	102.8
O=c1c2ccccc2c(C=Nc2cccc(C(F)(F)F)c2)c(O)n1-c1ccccc1	106.0	92.0	x	101.4
CCc1ccc(CNc2nc(C)nc3c(-c4ccc(C)cc4)noc23)cc1	x	x	-25.0	100.1

# Main list (from the top)
Molecule	Sa growth inh	Sa growth inh second temp	HCMV NEC inh	GIV-Gai inh
O=c1[nH]c2ccc(Cl)cc2c(-c2ccccc2)c1N1CCN(c2ccccn2)CC1	118.5	94.6	-7.1	104.0
Cc1nn(CCC(=O)Nc2ccc(Cl)cc2)c(C)c1S(=O)(=O)N1CCCCC1	109.9	96.2	x	101.0
COc1ccccc1C(=O)OCc1cc(=O)n2nc(-c3cccs3)sc2n1	92.5	81.6	x	102.8
O=c1c2ccccc2c(C=Nc2cccc(C(F)(F)F)c2)c(O)n1-c1ccccc1	106.0	92.0	x	101.4
CCc1ccc(CNc2nc(C)nc3c(-c4ccc(C)cc4)noc23)cc1	x	x	-25.0	100.1
CCN1CCCC1CNC(=O)C1c2cc(OC)c(OC)cc2C(=O)N(C)C1c1cccnc1 (stereo not given)	102.2	94.7	1.4	101.2
CCOc1ccc(-c2nc(Cn3nnc(C(=O)Nc4ccc(OC)cc4)c3C)c(C)o2)cc1	x	x	26.5	104.6
CCOC(=O)c1c(C=O)oc2c(C)cc(OC(=O)c3ccc([N+](=O)[O-])cc3)c(Br)c12	x	x	6.0	102.8
CCn1cc(CNC(=O)c2cc(-c3ccc(C)cc3)nc3ccc(Br)cc23)c(C)n1	97.3	95.2	-81.9	103.8
Nc1nc(N)nc(COC(=O)CSCc2ccc(Cl)c(Cl)c2)n1	141.2	110.0	-14.5	x
Clc1ccccc1CNc1nc2c(-c3ccccc3)nnn2c2ccccc12	x	x	-7.2	103.5
CCSc1nc(-c2ccccc2)cc(=O)[nH]1	106.2	94.2	-1.6	95.8
CC[N+]1(CC(O)COc2ccc(Br)cc2Br)CCOCC1 (stereo not given)	122.4	87.6	-6.2	x
COc1ccc2nc(C)cc(Nc3ccc(Cl)c(Cl)c3)c2c1	111.7	99.7	-39.1	102.9
Cc1ccccc1OCCSc1nc(C)c(Cc2ccccc2)c(=O)[nH]1	88.7	79.8	8.0	107.6
COC(=O)C1=C(N)OC2=C(C(=O)CC(C)(C)C2)C1c1cccnc1 (stereo not given)	x	x	-18.9	104.6
CCOCCn1ccc2c(OCC(=O)NC(C)(C)C)cccc2c1=O	103.8	87.5	-26.2	105.1
O=C(O)CC1(CC(=O)N2CCC(n3cccc3)CC2)CCCC1	77.7	79.9	-23.1	95.8
Cn1c(C(=O)N2CCN(C3CCCCC3)CC2)cc2c(=O)oc3ccccc3c21	x	x	7.8	108.9
Cc1cccc(Cn2c(SCc3ccc(C(=O)NCCc4ccccc4)cc3)nc3ccncc32)c1	125.2	113.3	-5.0	105.2
CC(CNC(=O)c1nc(Cn2cnc3ccccc3c2=O)no1)c1ccccc1 (stereo not given)	x	x	4.9	106.1
Cc1ccccc1OCC(=O)Nc1ccc2nc(SCCOc3ccccc3)sc2c1	96.2	93.7	8.0	102.2
CCN(C(=O)CSc1cccc[n+]1[O-])C1CCCCC1	94.1	93.2	-6.9	x
CCOc1ccc(-c2cnc3ccccc3n2)cc1	97.8	104.5	-47.9	104.7
CCCCn1c(=O)c2sccc2n2c(=O)n(CC(=O)NCc3ccc(OC)cc3)nc12	x	x	-7.3	99.8
COc1cccc2sc(N(CCCN(C)C)C(=O)c3ccc(Cl)cc3)nc12	x	x	-4.4	104.2
C=CCOc1ccc(CNC(C)(C)C)cc1	97.6	92.4	3.4	x
CCc1nc(-c2cc(S(=O)(=O)N3CCC(C(=O)Nc4ccc5c(c4)OCO5)CC3)c(C)s2)no1	x	x	-13.3	103.5
O=C(NCc1cccc(Cl)c1)C(=O)Nc1ccc2nc3n(c(=O)c2c1)CCCCC3	96.3	95.2	5.4	110.4
CCOC(=O)c1[nH]c(C)c(S(=O)(=O)NC2CCCCC2)c1C	x	x	-19.4	102.0
O=C(NCc1ccco1)c1cc2cc(Br)ccc2oc1=O	103.2	96.1	-5.0	102.7
O=C(Nc1ccc(F)cc1)c1cc2c(s1)-c1ccccc1SC2	105.0	97.4	x	96.3
CCc1c(C)nc2nncn2c1NCc1ccc(OC)cc1	105.1	82.5	-34.2	100.2
COc1ccc(N2CC(NC(=O)N3CC(C)OC(C)C3)CC2=O)cc1 (stereo not given)	103.9	89.5	-17.1	102.8
CCOc1ccccc1NC(=O)C1CCN(S(=O)(=O)c2ccc3[nH]c4c(c3c2)CCCCC4)CC1	100.1	90.9	x	96.6
O=C(Nc1ccccc1)c1ccn[nH]1	86.2	97.9	0.4&-22.6	97.9
COc1cccc(C(=O)Nc2ccccc2C(=O)OCc2cc(=O)n3c(C)csc3n2)c1	73.3	84.7	x	98.6
c1ccc(CN2CCC(c3cccs3)=N2)cc1	116.3	84.6	-42.6	106.3
N#Cc1ccccc1NC(=O)C1=COCCO1	96.3	85.4	-1.9	100.7
COc1ccccc1-n1cnnc1SCC(N)=O	85.4	97.0	4.3	x
N#CC(=C1SCCCS1)S(=O)(=O)c1cccs1	96.3	78.7	-30.5	98.6
N#Cc1c(NC(=O)c2cc(-c3cccs3)nc3ccccc23)oc(-c2ccco2)c1-c1ccco1	83.6	74.8	-38.7	x
Cc1ccc(C#N)c(SCC(=O)c2ccc(Br)cc2)n1	x	x	-57.8	95.9
CCOC(=O)c1nc(Nc2ccc3c(c2)CCC3)c2ccccc2n1	x	x	-3.3	103.3
CC1C(=O)CCC1(C(=O)Nc1ccccc1)c1ccccc1 (stereo not given)	122.3	79.6	-13.9	98.6
COC(=O)C12CCCC(C(N)=O)(CCC1)C2	74.9	91.1	-6.4	x
C[C@](Cc1ccc(O)c(O)c1)(NN)C(=O)O	x	x	-22.3	103.7
Cc1ccc(-n2c(SCC(=O)N3CCc4ccccc43)nc3c([nH]c4ccccc43)c2=O)cc1	91.9	100.3	x	99.9
Cc1nnc(C(=O)Nc2cccc(C(=O)NC3CCN(Cc4ccccc4)CC3)c2)s1	x	x	-8.9	107.8
O=C(Cn1nc2c(cc1=O)CCCC2)Nc1ccc(F)cc1F	118.3	105.5	x	109.2
COc1nccn(-c2ccc(F)cc2)c1=O	x	x	-23.3	104.7
N#CC1=C(SCC(=O)Nc2ccccc2)NC(=O)CC1c1ccccc1 (stereo not given)	80.9	83.2	x	97.1
CNC(=O)c1ccc(NC(=O)Nc2ccccc2)cc1	114.5	110.2	-22.8	95.7
Cc1cc(Nc2ccccc2)n(C(=O)c2ccccc2)n1	84.5	87.1	-30.2	x
CCCCNC(=O)c1cc2c(-c3cccc(OC)c3)nn(C)c2s1	85.9	60.0	-3.3	110.4
Cc1cccc(C)c1NC(=O)C1(N(C)C(=O)/C=C/c2ccc3c(c2)OCO3)CCCCC1	99.3	100.2	x	103.1
O=c1c2ccccc2nc(SCCN2CCCCC2)n1CC1CCCO1 (stereo not given)	101.5	93.3	-4.0	101.6
Cc1ccc(N2C(=O)C(Cc3ccccc3)N=C2N2CCN(C)CC2)c(C)c1 (stereo not given)	x	x	-29.7	102.0
CNC(=O)N1Cc2c(C)nn(-c3ccccc3)c2-n2cccc2C1c1ccc(N(C)C)cc1 (stereo not given)	x	x	-3.9	100.6
Cc1ccc(Oc2cnc3ccccc3n2)cc1	x	x	-7.2	107.0

# Next compounds follow:
Molecule	Sa growth inh	Sa growth inh second temp	HCMV NEC inh	GIV-Gai inh
COC(=O)c1cc(NC(=O)CNC2CCCCCC2)cc(C(=O)OC)c1	89.8	88.9	2.3	x
Cn1c(=O)c2c(C3C(=O)Nc4ccccc43)c(-c3ccc(Cl)cc3)[nH]c2n(C)c1=O (stereo not given)	x	x	-16.1	106.0
Cc1ccccc1OC(=O)c1ccc2ncsc2c1	96.0	93.2	1.2	x
Cc1ccc(NC(=O)C2COc3ccccc3O2)cc1 (stereo not given)	x	x	-12.6	100.8
CCCN1CCN(CCCNC(=S)Nc2ccc(F)cc2)CC1	99.3	100.3	-0.4	102.8
C=CCc1nc2ccccc2c(=O)n1CC=C	90.4	91.1	-10.0	x
CSCCC(C(=O)O)N1C(=O)/C(=C/c2cccnc2)SC1=S (stereo not given)	96.0	93.4	x	99.8
CCC(OC(=O)CN1C(=O)c2ccccc2C1=O)C(=O)Nc1sc2c(c1C#N)CCCC2 (stereo not given)	102.1	85.2	-7.8	97.3
CCOC(=O)c1cc(C)n(CCc2ccccc2)c1C	101.2	89.0	-2.8	98.3
COC(=O)C(Cc1ccccc1)NC(=O)c1ccc2c(c1)C(=O)N(Cc1ccco1)C2=O (stereo not given)	102.0	81.1	-90.6	x
O=C1NC(=S)NC(=O)C1=Cc1cn(Cc2c(F)cccc2Cl)c2ccccc12	x	x	-14.6	101.4
N#Cc1ccsc1NC(=O)Cc1cccs1	95.6	96.0	-1.0	x
Cc1ccc2c(c1)-c1onc(C(=O)N(C)c3ccc(F)cc3)c1CO2	117.3	97.4	x	102.1
Cc1cc2n(n1)CCC(=O)N2CCCC(=O)NCc1ccccc1Cl	x	x	-7.7	102.6
OCc1ccccc1-c1ccccc1CO	117.6	91.9	-4.9	99.3
CCn1c(CN2CCC(C)CC2)nc2cc(NC(=O)c3cccc([N+](=O)[O-])c3)ccc21	96.4	89.8	-40.6	108.8
CN1CCN(C(CNC(=O)c2ccco2)c2ccc3c(c2)OCO3)CC1 (stereo not given)	90.2	88.5	-11.4	97.2
Cc1ccc(S(=O)(=O)NCc2nc3ccccc3c(=O)n2N)cc1	88.5	101.6	2.0	102.6
COc1ccc(CNC(=O)Cn2c(SC)nc3ccccc32)cc1	104.7	77.9	-32.7	x
Cc1nc2scc(C)n2c(=O)c1S(=O)(=O)Nc1ccc(N2CCOCC2)c(Cl)c1	96.5	88.8	-7.3	104.6
COc1ccc(-c2cc(C(=O)N3CCN(S(=O)(=O)c4ccc(Cl)cc4)CC3)[nH]n2)cc1	x	x	3.0	107.4
COC(=O)c1cc(CSc2nnc(NCc3ccccc3)s2)oc1C	96.4	90.1	-21.1	x
Cc1ccc(C)c(S(=O)(=O)NCCOc2nc(NC(C)C)nc(NC(C)C)n2)c1	x	x	-12.9	100.7
Cc1ccc(-n2c(=O)c3ccc(C(=O)NCc4ccccc4Cl)cc3n(CC(=O)Nc3ccc(C)cc3C)c2=O)cc1	92.3	92.8	-16.9	96.8
COc1ccc(C)cc1NC(c1cccnc1)c1ccc2cccnc2c1O (stereo not given)	x	x	-65.2	106.4
COc1ccccc1N1CCN(S(=O)(=O)c2ccc3[nH]c4c(c3c2)CCCC4)CC1	98.0	84.7	x	104.0
COc1ccc(OC)c(NC(=O)C2CCCN(C(=O)c3cc(-c4ccccn4)n[nH]3)C2)c1 (stereo not given)	x	x	-16.0	98.2
C/C(=N\NC(N)=S)c1ccc(O)cc1	84.3	77.5	-31.6	98.0
Nc1ccc(C(=O)N/N=C/c2ccccc2)cc1	100.9	86.5	-35.6	97.5
Cc1noc2ncn(CC(=O)NC3CCCCC3)c(=O)c12	x	x	-21.5	104.3
CCc1ccc(C(=O)Cn2c(N3CCOCC3)nc3ccccc32)cc1	109.0	88.0	-15.8	x
O=C(O)c1cccc(Oc2ccccc2)c1	88.9	99.7	-3.4	x
Cn1nc(-c2ccc(C(=O)O)cc2)c2ccccc2c1=O	84.0	95.3	5.7	102.5
Cc1ccc2cc(CCNC(=O)c3ccc(S(=O)(=O)N4CCOCC4)cc3)c(=O)[nH]c2c1C	93.4	88.5	-10.5	102.4
COC(=O)c1ccc(/C=N/n2cc(-c3ccccc3)[nH]c2=S)cc1	118.6	96.2	-35.7	x
CC(CC(=O)O)NC(=O)c1ccc(OC(F)F)cc1 (stereo not given)	99.5	83.6	-9.0	x
Cc1ccc(CN(Cc2ccco2)C(=O)c2oc3cc(Br)ccc3c2C)cc1	87.2	80.6	5.0	104.9
COc1ccc(NC(=O)c2ccccc2Cl)cc1CN1CCn2c(nc3ccccc32)C1	x	x	-18.8	95.9
O=C(C1CCN(c2nnc(N3CCCC3=O)s2)CC1)N1CCCCC1	x	x	-15.7	105.4
COc1ccc2c(CNCCc3cccs3)c(C(=O)O)n(Cc3ccc(F)cc3Cl)c2c1	102.2	118.9	x	104.4
COCCNC(=O)c1cc(S(=O)(=O)N2CCOCC2)cn1C	87.9	79.9	-25.3	103.0
NC(=O)CCNC(=O)C(c1ccccc1)c1ccccc1	117.5	84.5	-15.3	x
COc1cc(/C=C2/SC(=Nc3ccccc3)NC2=O)cc(OC)c1O	x	x	-9.0	126.7
C=C(C)C1CC=C(C)C(=O)C1 (stereo not given)	95.8	87.9	-8.4	x
